NS1 inh: influenza NS1 inhibition; S. cerevisiae slowed by influenza A NS1, growth recovery by OD600; Potency, µM (titrated, usually from 46.1 µM), for the others: top-dose activity, positive = more growth; hit rate 0.4% among 270,000; also: actives are rising curves; nearly all actives have a fitted effect of over 50% in size
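Growth recovery, yeast-based: influenza A NS1 expressed in S. cerevisiae causes slow growth, and suppressors are detected by OD600. The parent strain without NS1 is used as positive control.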
MARV entry inh: Marburg virus entry inhibition. Potency, µM (series often up to 37.8 µM), without a hit: at the highest dose activity change, negative = inhibition, actives largely listed as inhibitors. AID 540276. hit rate 1.8% among 300,000. Marburg virus pseudotyped entry inhibition, cell reporter; control for the full effect not named in the record; about a third of the inactives were read at about 46 µM; active = well fitted inhibition curve with a large enough effect; inconclusive = small, poorly fitted or top-dose-only effect, or effect the other way; inactive = flat fitted curve, though single readings scatter; tested in HEK293 cells; about a fifth of its hits are not listed in these tables; also: % is scaled to controls: 0 for no effect and ±100 for the full control effect; luciferase read-out
StopGo reporter: FMDV 2A StopGo reporter, luciferase signal | human cells with a luciferase reporter of 2A StopGo recoding; control for the full effect not named in the record | Potency, µM (series often up to 57.9 µM), inactives show at the highest dose signal change, negative = less light | hit rate 1.2% among 410,000 | AID 1159524; active = well fitted falling curve with a large enough effect; inconclusive = small, poorly fitted or top-dose-only effect; inactive = no such curve, though single readings can be large or run the other way; tested in HEK293T cells; also: % is scaled to controls: 0 for no effect and ±100 for the full control effect; nearly all actives have a fitted effect of over 45% in size; luciferase light after 4 h
RE007 growth inh: less growth of the S. pombe RE007 Vpr strain; Potency, µM (titrated, usually from 92.2 µM), without a hit: at the top dose activity change, negative = less growth; S. pombe RE007 Vpr strain, BacTiter-Glo ATP luminescence, 24 h; control for the full effect not named in the record; hit rate 0.21% among 360,000; active = well fitted falling curve with a large enough effect; inconclusive = small, poorly fitted or top-dose-only effect; inactive = no such curve, though single readings can be large or run the other way;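 also: % is scaled to controls: 0 for no effect and ±100 for the full control effect; nearly all actives have a fitted effect of over 50% in size; the assay follows cell death caused by Vpr and the record does not say whether a fall means rescue or toxicity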
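Fission yeast RE007 carrying one integrated HIV-1 vpr copy, seeded at OD 0.01 in PMG+AL medium with 23 nL pinned compound. Grown 24 h at 30 degrees; viability read by BacTiter-Glo luminescence after 5 min.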
LASV entry inh: inhibitors of Lassa virus binding or cell entry; AID 540256; Lassa virus pseudotype entry inhibition, cell reporter; control for the full effect not named in the record; Potency, µM (highest dose often 37.9 µM), without a hit: top-dose activity change, negative = inhibition, hits mostly inhibitors; hit rate 1.2% among 300,000; active means well fitted inhibition curve with a large enough effect; inconclusive means small, poorly fitted or top-dose-only effect, or effect the other way; inactive means flat fitted curve, though single readings scatter; tested in HEK293 cells; also: % is scaled to controls: 0 for no effect and ±100 for the full control effect; nearly all actives have a fitted effect of over 50% in size; luciferase read-out
SARS PLP yeast: blocks SARS-CoV papain-like protease in a yeast assay; S. cerevisiae expressing SARS-CoV PLpro, growth rescue; control for the full effect not named in the record; Potency, µM (series often up to 32.9 µM), without a hit: at the highest dose activity, positive = growth rescue; hit rate 0.19% among 330,000; AID 485353; also: 0% is about no effect; nearly all actives have a fitted effect of over 55% in size; growth read by luminescence after 48 h
Cruzain Triton: blocks cruzain activity in presence of Triton detergent; P25779; purified cruzain, Z-FR-AMC fluorescence, 0.01% Triton; Potency, µM, without a hit: max response, negative = inhibition, most hits filed as inhibitors; hit rate 0.43% among 200,000; active = well fitted curve in the direction sought with a large enough effect; inconclusive = small, poorly fitted or top-dose-only effect, or another doubt; inactive = no such curve, though single readings can be large; an effect the other way counts as inactive or inconclusive;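 also: plate controls were neutral wells for no effect and buffer without enzyme for full effect; nearly all actives have a fitted effect of over 40% in size; top concentration of the series not given in the record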
Target sequence (P25779 123-467 limits assumed): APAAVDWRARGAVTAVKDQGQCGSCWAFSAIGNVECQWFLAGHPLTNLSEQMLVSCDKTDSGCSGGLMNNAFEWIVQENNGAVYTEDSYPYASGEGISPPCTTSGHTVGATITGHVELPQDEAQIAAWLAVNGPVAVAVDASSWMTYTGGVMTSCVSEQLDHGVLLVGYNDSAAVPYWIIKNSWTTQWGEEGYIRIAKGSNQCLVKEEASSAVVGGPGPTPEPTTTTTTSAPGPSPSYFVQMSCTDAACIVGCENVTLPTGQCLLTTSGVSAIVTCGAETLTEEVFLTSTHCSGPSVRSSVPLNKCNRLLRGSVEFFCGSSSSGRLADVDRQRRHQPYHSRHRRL
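In this qHTS format, compounds are incubated with 1.5 nM cruzain for 15 min at room temperature before 2 uM Z-FR-AMC is added. Release of AMC is followed at 360/450 nm, and progress is taken as the 60 s fluorescence difference.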
Cruzain noTriton: blocks cruzain activity in detergent-free assay; hit rate 2.3% among 200,000; P25779; purified cruzain, Z-FR-AMC fluorescence, no detergent; Potency, µM, for the others: max response, negative = inhibition, actives largely listed as inhibitors; active = well fitted curve in the direction sought with a large enough effect; inconclusive = small, poorly fitted or top-dose-only effect, or another doubt; inactive = no such curve, though single readings can be large; an effect the other way counts as inactive or inconclusive;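 also: plate controls were enzyme without inhibitor for no effect and buffer without enzyme for full effect; nearly all actives have a fitted effect of over 40% in size; top concentration of the series not given in the record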
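Detergent-free condition (0.00005% Triton X-100) in acetate buffer pH 5.5 with DTT. 1.5 nM enzyme and compound were pre-mixed 15 min, then 2 uM Z-FR-AMC substrate added; reaction progress from fluorescence change between first and third reads (60 s).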
The depositor's hits bear a star; ? = inconclusive; nt = no result given; & = joins results of further samples; [ ] = another dose, or the depositor's remark. Unless noted, calls follow the shape of the dose curve; as a rule, active means well fitted rising curve with a large enough effect; inconclusive means small, poorly fitted or top-dose-only effect; inactive means no such curve, though single readings can be large or run the other way. Potency is read from the fitted curve at half-maximal effect.

SMILES	NS1 inh	MARV entry inh	StopGo reporter	RE007 growth inh	LASV entry inh	SARS PLP yeast	Cruzain Triton	Cruzain noTriton
COc1ccc(S(=O)(=O)N2CCOC2CNC(=O)C(=O)NCCc2ccccc2)cc1OC (centres undefined)	4%	nt	-11%	-13%	nt	3%	nt	nt
COc1ccc(OC)c(NC(=O)CC2C(=O)NCCN2C(=O)Nc2cccc(Cl)c2)c1 (centres undefined)	1%	-25%	-9%	-5%	30%	-3%	3.7%	?
CCc1ccc(NC(=O)CC2C(=O)N(c3cccc(OC)c3)C(=O)N2Cc2ccco2)cc1 (centres undefined)	nt	nt	-8%	nt	?	nt	-5.8%	10%
NNC(=O)CC1=NNC(=O)C1	nt	-3%	-16%	-4%	11%	nt	nt	nt
O=C(CSc1ccc(Cl)cc1)Nc1ccc(N2CCN(c3ccccc3)CC2)c(F)c1	-16%	0%	-8%	-7%	3%	-17%	5.1%	?
Cc1c(Cl)cccc1-n1ncc(C(=O)NC2CCCCC2)c1C1CCN(C(=O)OC(C)(C)C)CC1	nt	nt	-19%	nt	32%[46.1 µM]	nt	-0.2%	-20%
COc1cccc(C(=O)Nc2cccc(NC(=O)c3cccs3)c2)c1	-20%	nt	13%	-1%	nt	-5%	nt	nt
O=C(CCl)Nc1cccc(S(=O)(=O)NC2=NCCC2)c1	-42%	nt	-25%	15%	nt	0%	nt	nt
CC1CN(C(=O)c2ccccc2Sc2ccccc2C#N)CC(C)O1 (centres undefined)	1%	-5%	-14%	8%	-3%	2%	1.0%	-9%
Cc1ccc(C(C)NC(=O)c2cc3cc(Br)ccc3oc2=N)cc1 (centres undefined)	19%	-12%	-22%	-12%	-8%	2%	nt	nt
COc1ccc(CCNc2nc3c(c(=O)n(C)c(=O)n3C)n2C)cc1OC	3%	-11%	-23%	0%	-1%	4%	1.8%	-9%
CNC(=O)N(O)C1N(/N=C/c2ccc(N(C)C)cc2)C(=S)SC1(C)C (centres undefined)	-5%	nt	61%[activator]	8%	nt	0%	nt	nt
COc1ccc(CC(=O)N2CCc3ccccc3C2)cc1	-8%	nt	32%	3%	nt	1%	nt	nt
COC(=O)C(Cc1ccc(O)cc1)NC(=O)CCc1nc2ccccc2s1 (centres undefined)	6%	?	-6%	3%	14%[46.1 µM]	5%	nt	nt
COc1ccc(S(=O)(=O)c2snnc2C)cc1	3%	nt	-10%	2%	nt	-1%	nt	nt
CCc1ccc(-n2c(=O)c3sc4ccccc4c3n(Cc3cccc(F)c3)c2=O)cc1	nt	12%[46.1 µM]	-4%	nt	13%[46.1 µM]	nt	-0.9%	-9%
Cc1cccn2c(=O)cc(COc3ccc(NC(=O)C(C)Oc4ccccc4)cc3)nc12 (centres undefined)	nt	nt	-4%	nt	-9%[46.1 µM]	nt	-2.4%	?
c1cnc2c(OCc3nc4ccccc4[nH]3)cccc2c1	-38%	10%	nt	3%	18%	-19%	0.0%	0%
COc1cccc(C2NC(C)(C(=O)O)C3C(=O)N(C(C)C)C(=O)C23)c1O (centres undefined)	?	nt	1%	-7%	nt	1%	4.6%	0%
O=C(COC(=O)c1cc(=O)c2ccccc2o1)NC1CCCC1	nt	2%[46.1 µM]	-10%	6%	9%[46.1 µM]	0%	nt	nt
CCN(CC)c1ccc(/C=N/NC(=O)c2cccc(S(=O)(=O)Nc3ccccc3OC)c2)cc1	19%	nt	-12%	6%	nt	-1%	nt	nt
Nc1ncc(Br)cc1S(=O)(=O)NCCC(=O)N1CCN(c2ncccn2)CC1	-22%	-16%&-16%	4%	3%	6%	7%	2.0%	-2%
Cc1ccc(NC(=O)CN(C)C(=O)COc2c(Cl)cc(Cl)c3ccc(C)nc23)cc1	10%	3%	-4%	-5%	nt	2%	-7.5%	?
O=C(COc1ccc(Cl)cc1)N(Cc1ccco1)Cc1ccco1	nt	16%[46.1 µM]	0%	nt	-3%[46.1 µM]	nt	-6.1%	-11%
CCNC(=O)COc1cc(C)c(Cl)c(C)c1	-7%	13%	5%	-21%	0%	-9%	3.0%	2%
COC(=O)c1cc(OC)c(OC)cc1NCC(=O)Nc1ccc(C)cc1	-21%	6%	-7%	16%	6%	4.5µM*	-2.1%	2%
O=C(NCCC1=CCCCC1)c1c(O)nc2sccn2c1=O	nt	5%	10%	-12%	-19%	3%	nt	nt
CCc1n[nH]c(=O)c2cc3cc(OC)ccc3n12	1%	-7%[46.1 µM]	-11%	-13%	18%	1%	nt	nt
CC(Oc1cccc(Cl)c1)C(=O)Nc1ccc(S(=O)(=O)Nc2ncccn2)cc1 (centres undefined)	nt	4%	-17%	-22%	-12%	2%	nt	nt
O=C(COC(=O)CNC(=O)c1ccccc1)Nc1ccc(Cl)cc1C(F)(F)F	-9%	-13%	-10%	14%	6%	0%	16µM*	13µM*
Cc1ccc(-n2[nH]c(C)c(C=Nc3ccc(S(=O)(=O)Nc4nccs4)cc3)c2=O)cc1	28%	5%	nt	nt	12%	-41%	-8.1%	?
COc1ccccc1N1CCN(C/C(C)=C/c2ccccc2)CC1	-11%	-18%	-23%	-15%	-3%	-1%	-0.7%	-6%
COc1ccc(N2CCN(c3ncnc4c3cnn4C)CC2)cc1	nt	nt	?	nt	-11%[46.1 µM]	nt	1.1%	0%
CNC(=O)NC(=O)CSc1ccc(S(=O)(=O)N(C)C2CCCCC2)cn1	nt	25%	-11%	10%	?	2%	nt	nt
Cc1cc(C(=O)N2CCN(Cc3ccc4c(c3)OCO4)CC2)on1	6%	nt	-14%	0%	nt	-6%	-2.8%	10%
CCCCn1c(N)c(N(CCOC)C(=O)CC(NC(=O)c2ccccc2)c2ccccc2)c(=O)[nH]c1=O (centres undefined)	nt	-1%	9%	1%	-10%	8%	nt	nt
Cc1ccc(-c2onc(C)c2C)cc1S(=O)(=O)NCc1ccc(N(C)C)cc1	nt	nt	6%	nt	-34%[46.1 µM]	nt	-4.0%	-6%
COc1ccc(CNC(=O)CN(C(=O)Cn2nnc(-c3ccccc3F)n2)c2ccc(C)cc2)cc1	-2%	15%[46.1 µM]	15%	1%	22%[46.1 µM]	-1%	nt	nt
CCCCCn1c(CN2CCN(c3ccc(OC)cc3)CC2)nc2c1c(=O)[nH]c(=O)n2C	nt	-9%[46.1 µM]	0%	nt	?	nt	-1.5%	?
Cc1ccc(OCC(O)CN2C(=O)NC(C)(C)C2=O)cc1C (centres undefined)	2%	1%	-10%	-2%	nt	-1%	4.5%	4%

Some of these compounds in order of length of the SMILES, smallest number first:
SMILES	NS1 inh	MARV entry inh	StopGo reporter	RE007 growth inh	LASV entry inh	SARS PLP yeast	Cruzain Triton	Cruzain noTriton
COc1ccccc1N1CCN(C/C(C)=C/c2ccccc2)CC1	-11%	-18%	-23%	-15%	-3%	-1%	-0.7%	-6%
O=C(COc1ccc(Cl)cc1)N(Cc1ccco1)Cc1ccco1	nt	16%[46.1 µM]	0%	nt	-3%[46.1 µM]	nt	-6.1%	-11%
Cc1cc(C(=O)N2CCN(Cc3ccc4c(c3)OCO4)CC2)on1	6%	nt	-14%	0%	nt	-6%	-2.8%	10%
Nc1ncc(Br)cc1S(=O)(=O)NCCC(=O)N1CCN(c2ncccn2)CC1	-22%	-16%&-16%	4%	3%	6%	7%	2.0%	-2%
Cc1ccc(-c2onc(C)c2C)cc1S(=O)(=O)NCc1ccc(N(C)C)cc1	nt	nt	6%	nt	-34%[46.1 µM]	nt	-4.0%	-6%

Further records follow:
SMILES	NS1 inh	MARV entry inh	StopGo reporter	RE007 growth inh	LASV entry inh	SARS PLP yeast	Cruzain Triton	Cruzain noTriton
CN(C)CCCn1c(=O)n(Cc2ccccc2)c(=O)c2c3c(sc21)CCCCC3	4%	7%	-23%	1%	-18%	-2%	nt	nt
O=C(Nc1ccc(F)cc1)C1CCCN(c2ncnc3c2nc2n3CCCCC2)C1 (centres undefined)	nt	nt	?	nt	?	nt	1.3%	11%
C[C@]12C[C@H](O)[C@@H](O)CC1=CCC1C2CC[C@@]2(C)C1CC[C@@H]2O (some centres undefined)	nt	8%[46.1 µM]	-12%	-2%	-7%[46.1 µM]	-5%	nt	nt
COc1cccc(CNC(=O)Cn2c(=O)oc3cc(S(=O)(=O)N4CCCCC4)ccc32)c1	11%	nt	-13%	26%	nt	-1%	nt	nt
CCC12CN3CC(C)(CN(C1)C3c1c[nH]c3ccccc13)C2=O (centres undefined)	nt	6%[46.1 µM]	-25%	nt	-22%[46.1 µM]	nt	-1.4%	8%
Cc1ccc2nc(SCc3ccccc3)c(C=O)c(=O)n2c1	14%	24%	5%	48%	?	20%	-3.7%	-10%
O=C(NCCN1C(=O)S/C(=C\c2ccc(Cl)c(Cl)c2)C1=O)C1COc2ccccc2O1 (centres undefined)	4%	?	-10%	-6%	?	1%	nt	nt
CCOC(=O)c1c(NC(=O)CSc2nnc3ccccn23)sc2c1CCC2	8%	-30%	-13%	3%	-23%	1%	-6.5%	13%
Cc1ccccc1NC(=O)c1ccccc1NC(=O)c1ccccc1Cl	nt	nt	1%	nt	14%[46.1 µM]	nt	-4.0%	-4%
CCN1N=C(C)C=C(c2ccccc2)n2c1nc1ccccc12	-7%	nt	-30%	8%	nt	0%	nt	nt
CCNCCNC(=O)c1c(O)c2c([nH]c1=O)CCCC2	-3%	-25%	nt	-8%	6%	9%	-0.4%	-4%
O=C1CCN(CCc2ccccc2)CCN1[C@H](CSc1ccc(Br)cc1)c1ccccc1	1%	nt	15%	3%	nt	3%	nt	nt
Fc1ccccc1NC(=S)NCc1ccccc1	23%	7%[46.1 µM]	25%	-16%	16%[46.1 µM]	-1%	nt	nt
CCC1(c2ccccc2)NC(=O)N(CC(=O)Nc2ccccc2C(=O)NC2CCCC2)C1=O (centres undefined)	nt	9%	-23%	-3%	12%	0%	nt	nt
COC(=O)c1ccc(NC(=O)c2cc3sccc3n2C)cc1	-4%	0%	25%	?	-10%	-3%	0.3%	?
Cc1cccc(Oc2cc(NC(=O)c3ccccc3)cc([N+](=O)[O-])c2)c1	?	?	?	5%	?	-3%	-0.1%	-24%

Screening results (PubChem)
